HPGD block – HPGD (human) dehydrogenase inhibition; Potency, µM, for the others: at the top dose activity change, negative = inhibition, actives largely listed as inhibitors; hit rate 4.3% among 150,000; AID 894; P15428; purified HPGD, NADH fluorescence kinetic, PGE2 substrate; active = well fitted inhibition curve with a large enough effect (not every such curve was filed as active); inconclusive = small, poorly fitted or top-dose-only effect, or another doubt; inactive = no such curve, though single readings can be large or run the other way;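 also: top concentration of the series not given in the record; plate controls included wells without enzyme; inactives centre near -10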
Target sequence (P15428 whole entry, looked up): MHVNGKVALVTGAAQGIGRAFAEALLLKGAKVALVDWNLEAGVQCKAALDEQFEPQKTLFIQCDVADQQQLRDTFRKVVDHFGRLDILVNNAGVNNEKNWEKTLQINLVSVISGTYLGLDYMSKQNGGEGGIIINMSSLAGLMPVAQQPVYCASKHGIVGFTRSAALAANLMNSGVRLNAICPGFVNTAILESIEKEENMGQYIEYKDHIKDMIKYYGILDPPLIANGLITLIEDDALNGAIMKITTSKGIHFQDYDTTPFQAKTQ
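NADH formation kinetics: reaction with 30 uM PGE2 and 1 mM NAD+ (final), 20 nM enzyme, Tris-HCl pH 8 with Tween 20, after 15 min compound preincubation at room temperature. Fluorescence change, last versus first of five reads.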
* = called active by the depositor; ? = inconclusive; & = joins results of further samples. % is scaled to controls: 0 for no effect and ±100 for the full control effect; potency is read from the fitted curve at half-maximal effect. These rows are one share of the data (hit frequency here may not be typical).

SMILES	HPGD block
Cc1cc2oc(=O)cc(CN3CCN(Cc4ccccc4)CC3)c2cc1Cl	?
CCOCCn1c(CN2CCC(Cc3ccccc3)CC2)nc2c1c(=O)n(C)c(=O)n2C	-5%
COc1ccc(C)cc1NC(=O)c1[nH]c(C)c(C(C)=O)c1C	-24%
Cc1cc(C(=O)OCc2nc3ccccc3s2)c(C)o1	-23%
Cc1nn(Cc2ccccc2Cl)c2sc(C(=O)Nc3ccccc3N3CCOCC3)cc12	?
Cc1cccc(NC(=S)NC2CC3CCC(C2)N3Cc2ccco2)c1C (configuration not stated)	-3%
Cc1nnc(SCc2nnc(-c3ccccc3Br)o2)n1-c1ccccc1	-29%
Cn1nc(C(F)(F)F)c(C(=O)Nc2ccc(F)cc2F)c1Sc1ccc(C(F)(F)F)cc1	?
CC1CCC(NC(=O)C2CCC(CNS(=O)(=O)c3cccc4nsnc34)CC2)CC1 (configuration not stated)	-15%
COc1ccc(-c2noc(CCC(=O)N(C)c3cccc(C)c3)n2)cc1	-23%

Another view of part of the listing above:
canonical_smiles,HPGD block
CCOCCn1c(CN2CCC(Cc3ccccc3)CC2)nc2c1c(=O)n(C)c(=O)n2C,-5%
Cc1nnc(SCc2nnc(-c3ccccc3Br)o2)n1-c1ccccc1,-29%
CC1CCC(NC(=O)C2CCC(CNS(=O)(=O)c3cccc4nsnc34)CC2)CC1 (configuration not stated),-15%
Cc1cccc(NC(=S)NC2CC3CCC(C2)N3Cc2ccco2)c1C (configuration not stated),-3%
Cc1cc(C(=O)OCc2nc3ccccc3s2)c(C)o1,-23%
COc1ccc(C)cc1NC(=O)c1[nH]c(C)c(C(C)=O)c1C,-24%
Cc1nn(Cc2ccccc2Cl)c2sc(C(=O)Nc3ccccc3N3CCOCC3)cc12,?

The listing continues.
SMILES	HPGD block
Cc1cccc(OCCNC(=O)c2ncn[nH]2)c1	-18%
CCC(NC(=O)C1CCC1)c1ccc(C)cc1 (configuration not stated)	-18%
CC(=O)Oc1ccc2c(c1)CCC1C2CC[C@]2(C)C(=O)CCC12 (some centres not stated)	-2%
O=C(CSc1nnc(Cc2ccccc2)o1)NCCc1ccccc1	-10%
Cc1ccc2[nH]c3c(c2c1)CN(C(=O)CN1CCN(c2ccccn2)CC1)CC3	-22%
CCCn1c(Sc2nnnn2-c2ccccc2)n[nH]c1=O	-6%
COC(=O)C1C(=O)NCC1c1ccc(C)cc1 (configuration not stated)	-14%
COc1ccc(NC(=O)Nc2ccc(N3CCCC3=O)cc2)cc1OC	-12%
C/C(=N\NC(=O)Cc1ccc(Cl)cc1)c1ccccn1	-2%
O=c1c(-c2ccc(F)cc2)coc2cc(O)ccc12	?
CCC(=O)N1COC[C@@H]1Cc1ccccc1	-6%
O=C1CC(c2nc3ccccc3[nH]2)CN1Cc1ccccc1 (configuration not stated)	-4%
N#Cc1c(/N=C/c2ccc(Br)s2)sc2c1CCC2	-11%
CCn1c(SCC(=O)c2ccc(O)c(O)c2)nnc1-c1ccc(C)cc1	-15%
CCOC(=O)C1CCN(C(=O)CN(c2ccc3c(c2)OCCO3)S(C)(=O)=O)CC1	0%
CC1(C)Cc2[nH]c(=S)c(C#N)cc2CO1	25µM*
CCOc1ccc(CC(=O)Nc2c(C(=O)Nc3ccccc3)oc3ccccc23)cc1OCC	?
Cc1ccc(S(=O)(=O)NC(=NC(C)C(=O)O)c2ccccc2)cc1 (configuration not stated)	1%
Cc1oc2cc(O)ccc2c(=O)c1-c1cnn(-c2ccccc2)c1	?
Cc1ccc2c(c1C)NC(C)CC2C (configuration not stated)	-8%
O=C(O/N=C1\CCCc2ccccc21)c1ccc(F)cc1	-5%
CCOc1ccc(NS(=O)(=O)c2ccc3[nH]cc(C(=O)NCCOC)c(=O)c3c2)cc1	-8%
O=C(CSc1nc2[nH]ncc2c(=O)n1-c1ccccc1Br)NCc1ccco1	-15%
Clc1ccccc1C(c1nnnn1Cc1ccco1)N1CCN(Cc2ccco2)CC1 (configuration not stated)	-14%
N#Cc1c(NC(=O)CN2CCOCC2)oc(-c2ccccc2)c1-c1ccccc1	-30%
O=C(CCCSc1nc2ccccc2[nH]1)Nc1nnc(-c2ccccc2)o1	-17%
CCc1ccc(C2N(c3ccc(OC)cc3)C(=O)C3CCCN32)cc1 (configuration not stated)	-15%
COc1ccc(-c2cc(C(=O)N3CCc4ccccc4C3)no2)cc1OC	11µM*
COc1ccccc1CNC(=O)C(C)NS(=O)(=O)c1ccc(Br)cc1 (configuration not stated)	-5%
CCC(C)(C(=O)NC1CCCC1)N(Cc1ccco1)C(=O)c1ccc2c(c1)OCO2 (configuration not stated)	-7%

Two successive compounds out of the list so far, for reference:
SMILES	HPGD block
Cc1cc2oc(=O)cc(CN3CCN(Cc4ccccc4)CC3)c2cc1Cl	?
CCOCCn1c(CN2CCC(Cc3ccccc3)CC2)nc2c1c(=O)n(C)c(=O)n2C	-5%

Next section.
SMILES	HPGD block
O=C(Cn1cc2c(n1)CCCC2)N1CCCc2ccccc21	-10%
COc1cc(C)c2c(=O)cc(-c3ccccc3)oc2c1	-23%
CCOc1cccc(C(=O)N2CCCCC2c2cccnc2)c1 (configuration not stated)	-6%
CN(C)CCC(=O)NCC1OCCc2ccccc21 (configuration not stated)	-9%
Cc1cc(C)c(NC(=O)c2ccoc2C)c(C)c1	-7%
CC(Sc1nnc(-c2cccnc2)n1-c1ccccc1)C(=O)NCc1ccc2c(c1)OCO2 (configuration not stated)	-6%
COc1ccc(C(C)C)cc1S(=O)(=O)N1CCN(C)CC1	-3%
COc1cccc(C(=O)CSc2nnc(-c3cc(OC)cc(OC)c3)o2)c1	0%
CC(c1ccccc1)C1CC(=O)N(c2ccc(C(=O)O)cc2)C1=O (configuration not stated)	-12%
O=C1NC(c2ccc(Br)cc2)Nc2sc3c(c21)CCC3 (configuration not stated)	-30%
Cc1ccc(-c2nc3cnccn3c2Nc2ccccc2)o1	?
O=C(CSc1nc2c(c(=O)n1-c1ccc(Cl)cc1)SCC2)NCC1CCCO1 (configuration not stated)	-4%
COC(=O)c1cccc(NS(=O)(=O)c2ccc(OC)c(OC)c2)c1C	0%
CC(C)COc1ccc(S(=O)(=O)NNC(=O)c2cc3ccccc3o2)cc1	-8%
C[C@H]1COc2c(N3CCN(C)CC3)c(F)cc3c(=O)c(C(=O)NCc4ccco4)cn1c23	-18%
CCc1c(C)nc(N)n2c(SCC(=O)Nc3ccccc3)nnc12	-1%
Cc1cccc(OCCCC(=O)Nc2ccc(S(=O)(=O)Nc3onc(C)c3C)cc2)c1	-10%
Cc1nc(CN2CCCC2=NC#N)n(-c2ccccc2)n1	-7%
COc1ccc(NC(=O)/C(C#N)=C\c2cc(C)n(-c3ccc(Oc4ccc([N+](=O)[O-])cn4)cc3)c2C)cc1	28µM*
CCOC(=O)c1cc([N+](=O)[O-])sc1NC(=O)c1ccc(S(=O)(=O)N2CC3(C)CC2CC(C)(C)C3)cc1 (configuration not stated)	-26%
C[C@@H](C(=O)Nc1ccc2ccccc2c1)[C@H]1C[C@]1(C)[C@H](NP(=O)(c1ccccc1)c1ccccc1)c1ccccc1	-8%&-8%
CSc1cccc(NC(=O)COc2cccc3ccccc23)c1	-4%
CCCCCC(C)n1[nH]c(=O)cc1N (configuration not stated)	-5%
COc1cc2c(cc1OC)C(C(=O)NCc1cccnc1)C(c1cccnc1)N(C)C2=O (configuration not stated)	0%
CN(CC(=O)N1CCN(c2ccccc2F)CC1)S(=O)(=O)c1cnc[nH]1	-3%
O=C(NNS(=O)(=O)c1ccccc1[N+](=O)[O-])c1ccncc1	-12%
Cc1nnc(NC(=O)Cc2cccs2)s1	-2%
COc1ccc(Nc2nc(N3CCCCC3)c3ccccc3n2)cc1	?
COc1ccc(CNC(=O)C(C)N=C2NS(=O)(=O)c3ccccc32)cc1OC (configuration not stated)	1%
Cc1ccc(-c2csc3nc[nH]c(=S)c23)cc1	?
CN(C)S(=O)(=O)c1cccc(C(=O)NCC2CCCO2)c1 (configuration not stated)	-15%
O=C(Nc1cccnc1)c1ccccc1O	?
O=C=Nc1ccc(Cc2ccc(N=C=O)cc2)cc1 (tested in a mixture with another compound)	-8%
COc1ccc(Cl)cc1N(C(=O)Nc1cccc(Cl)c1)C1=NCC(C)S1 (configuration not stated)	-19%
CCOC(=O)c1cc2sc(C)cc2n1CC(=O)N1CCN(C(=O)c2ccco2)CC1	-12%
Cc1ccc(S(=O)(=O)N(C)c2ccc(OCC(=O)Nc3nc4ccccc4s3)cc2)cc1	-10%
NC(=O)c1ccccc1OCC(=O)O	-13%
CCCCNC(=O)Nc1ccccc1C(=O)NCc1ccco1	-8%
Cc1cccc(/C(N)=N/OC(=O)Cc2cccs2)c1	-8%
CCN(CCNC(=O)CN1CCN(Cc2ccc(Cl)cc2)C1=O)c1ccccc1	-5%
COc1ccc(-c2nnc(SCCc3ccccc3)n2N)cc1	-19%
CCCCC(=O)NC(=S)NNC(=O)CC	-12%
COc1ccc2nc(NC(=O)C3CCCN(S(=O)(=O)c4c(C)noc4C)C3)sc2c1 (configuration not stated)	-14%
COc1ccc(C)cc1S(=O)(=O)N(C)CC(=O)NC1CCCCC1	3%
COc1cc(/C=N/N=C(/N)c2nonc2N)cc(Br)c1OCc1cccc(C)c1	-12%
CCn1cc([N+](=O)[O-])c(C(=O)Nc2cc(C)on2)n1	-7%
Cc1cc(Nc2ccc(F)c(Cl)c2)n2ncnc2n1	-14%
COc1ccc(-c2nc(-c3cccc(C)c3)nc(Cl)c2C#N)cc1	?
Nc1nc(Cl)nc2c1ncn2[C@@H]1O[C@H](CO)[C@@H](O)[C@H]1O	-9%&-2%
O=C(c1cccc(C(=O)N2CCN(c3ccccc3F)CC2)c1)N1CCN(c2ccccc2F)CC1	-12%

(listing goes on)
SMILES	HPGD block
Cc1oc(CC(C)C)c(CN)c1C(=O)O	-4%
CC(Sc1nnc(-c2ccccc2Br)n1-c1cccc(C(F)(F)F)c1)C(N)=O (configuration not stated)	-4%
COc1ccc(CCNC(=O)CC2Nc3ccccc3NC2=O)cc1OC (configuration not stated)	?
COc1ccc(C(=O)N[C@H](C(=O)Nc2ccc(OC)nc2)C(C)C)cc1	-10%
COc1ccc(S(=O)(=O)Nc2cc(C)ccc2OC)cc1C	-4%
CN(C)Cc1ccc(C(C)(C)C)cc1-c1cc(C(C)(C)C)ccc1CN(C)C	-11%
Cn1c(Oc2ccc3c(c2)OCO3)nc2c1c(=O)n(Cc1ccccc1)c(=O)n2C	0%
CC(/C=N/NC(=O)CCn1nnc2ccccc21)=C\c1ccccc1	-3%
Cc1nn(CCCNC(=O)C2CCCO2)cc1Br (configuration not stated)	-8%
O=C(NCCSCc1ccc(Cl)cc1Cl)c1ccc(CN2CCOCC2)cc1	-9%
CC(C)Cc1cc(C(=O)Nc2sc3c(c2C#N)CCCC3)no1	28µM*
Cc1ccc(CNC(=O)CSc2ncccn2)cc1	-4%
COc1ccc(S(=O)(=O)N2CC3CCCN3c3ccc(C(F)(F)F)cc32)cc1 (configuration not stated)	-20%
CN(C)CCNC(=O)c1cc2ccccc2oc1=O	-24%
COc1ccc(OC)c(Nc2ncnc3c2cnn3-c2ccccc2)c1	-9%
Fc1ccc([C@@H]2CCNC[C@H]2COc2ccc3c(c2)OCO3)cc1	-12%
COCCN(C(=O)CNC(=O)c1ccco1)C(C(=O)NC1CCCCC1)c1cccc(OC)c1 (configuration not stated)	-10%
Cc1cccc(C)c1NC(=O)C1NC(=O)CC1c1ccccc1 (configuration not stated)	0%
CCN(CC)S(=O)(=O)c1cc(C)ccc1SC	-4%
CC(C)(C)c1nn2cnnc2n(/N=C/c2ccc(O)cc2)c1=O	-9%
C=CCNCCCCOc1c(Cl)cc(C)cc1Br	-8%
COc1ccc(Br)cc1C(=O)NC(=S)Nc1cc(-c2nc3ccccc3[nH]2)ccc1C	28µM*
CC1(C)CC(=O)C=C(NCc2ccncc2)C1	-10%
COc1ccc(C2(CNC(=O)/C=C\c3ccco3)CCCC2)cc1OC	?
COC(=O)[C@@]1(Cc2ccccc2)[C@@H]2C(=CC(=O)[C@H]2CC(=O)C(=O)N(C)C)CN1C(=O)c1ccccc1	-6%&-7%
Cc1ccc(C(=O)Oc2cccnc2)cc1[N+](=O)[O-]	-2%
COc1ccc(-n2nnnc2SCC(=O)Nc2ccc3c(c2)OCCO3)c(OC)c1	-10%
Cc1cccc(OCCn2nc(C(=O)O)c3ccccc3c2=O)c1	28µM*
COC(=O)c1sc(N)c(C(=O)OC)c1CSc1nnnn1C	-2%
Cc1cc(=O)oc2cc(NC(=O)CCC(=O)O)ccc12	?
Cn1c(=O)c2[nH]cnc2n(-c2ccccc2)c1=O	-3%
Cc1ccc(C(=O)O)cc1S(=O)(=O)N1CCCC1	-1%
O=C(Cc1ccccc1)N1CCC(C(=O)N2CCN(c3ccc(F)cc3)CC2)CC1	-10%
Cc1ccc(NC(=S)N(CCCN2CCOCC2)Cc2cccs2)c(C)c1	-10%
Nc1c(C(=O)NCc2ccco2)c2nc3ccccc3nc2n1CCc1ccccc1	?
Cc1ccc2c(c1)N(CC(=O)N1CCCc3ccccc31)C(=O)CO2	0%
O=C(/C=C/c1ccc2c(c1)OCO2)NCc1ccc(F)cc1	?
CCOC(=O)c1c(N2C(=O)C3C4C=CC(O4)C3C2=O)sc2c1CCCC2 (configuration not stated)	16µM*
Fc1ccc(COc2ccc(Br)cc2CNCc2ccncc2)cc1	-4%
CCc1cc2c(=O)n(-c3ccccc3)cnc2s1	-4%

Arranged by molar mass (ascending): some entries from above.
SMILES	HPGD block
Cn1c(=O)c2[nH]cnc2n(-c2ccccc2)c1=O	-3%
CCc1cc2c(=O)n(-c3ccccc3)cnc2s1	-4%
Cc1ccc(C(=O)O)cc1S(=O)(=O)N1CCCC1	-1%
O=C(/C=C/c1ccc2c(c1)OCO2)NCc1ccc(F)cc1	?
CCOC(=O)c1c(N2C(=O)C3C4C=CC(O4)C3C2=O)sc2c1CCCC2 (configuration not stated)	16µM*
Cc1ccc(NC(=S)N(CCCN2CCOCC2)Cc2cccs2)c(C)c1	-10%
O=C(Cc1ccccc1)N1CCC(C(=O)N2CCN(c3ccc(F)cc3)CC2)CC1	-10%
